# Sa growth 42C – S. aureus growth inhibition at 42 and 30 °C, primary screen, LtaS inhibitor project, RN4220, two temperatures | OD600, 20 h, 42 °C; stronger effect = lower value | actives 0.53% (n = 170,000) | relative growth, % (test concentration not listed);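 active means growth at 42 °C up to 50% and 20 or more points under that at 30 °C, or under 10% at both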;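 further: 300 nL library stock went into each well; scaled to the means of positive and negative controls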
# HCMV UL50-53 inh – inhibitors of HCMV UL50-UL53 interaction, biochemical, HTRF; normalized percent inhibition; HCMV UL50-UL53 nuclear egress complex (human cytomegalovirus); inhibition, % (no concentration beside the values); actives 0.15% (n = 190,000); AID 1918969, 2023;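 active means both replicates at 50% or more, plus weaker picks with an unusually low signal ratio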;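 further: stock transfer was 100 nL into about 20 µL; 0% = negative control wells and 100% = wells with untagged competitor protein; inactives centre near -12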
# GIV-Gai inh – inhibitors of GIV peptide binding to Galpha-i3, primary screen, biochemical, fluorescence polarization, FITC-GIV GBA peptide, rat Galphai3. Guanine nucleotide-binding protein G(i) subunit alpha-3 (Rattus norvegicus), P08753. 90 min; stronger effect = lower value; scaled: aluminum fluoride 0%, vehicle 100%. percent of control (FP), % (test concentration not listed). actives 0.42% (n = 210,000). AID 1224905, 2016;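 active means replicate mean at 85% of control or lower, very high polarization wells dropped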;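 further: wells of about 15 µL received 100 nL stock; the first replicate is given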
# Target sequence (P08753 whole entry, looked up): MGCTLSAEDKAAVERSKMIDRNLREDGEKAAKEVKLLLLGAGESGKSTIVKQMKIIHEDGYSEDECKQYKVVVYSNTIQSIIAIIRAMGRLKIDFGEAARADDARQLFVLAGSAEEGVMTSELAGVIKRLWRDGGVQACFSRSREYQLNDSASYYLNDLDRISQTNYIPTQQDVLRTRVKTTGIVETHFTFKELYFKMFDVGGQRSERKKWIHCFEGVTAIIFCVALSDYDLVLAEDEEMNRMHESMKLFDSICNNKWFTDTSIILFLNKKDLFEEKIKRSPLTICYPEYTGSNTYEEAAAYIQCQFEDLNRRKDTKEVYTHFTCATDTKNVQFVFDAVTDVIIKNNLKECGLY
# Sa growth 42C second temp – second read-out of Sa growth 42C, no call of its own (marks repeat the call); relative growth, %; measured here: growth at 30 °C;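 optical density after 20 h as mean of two plates; 100% = untreated growth and lower means inhibition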
# Active calls of the source: *; . = no result given; & = joins results of further samples. Some of the compounds tested. The share of hits here may be higher or lower than overall.
SMILES,Sa growth 42C,Sa growth 42C second temp,HCMV UL50-53 inh,GIV-Gai inh
CC(C)C(=O)OCC1CCCN2CCCCC12 (centres undefined),112,89,-4,.
CCC(=O)N1CC(=O)Nc2ccc(C)cc2C1c1ccc(F)cc1 (centres undefined),100,91,-2,104
Cc1ccn2c(CN3CCNCC3)c(C)nc2c1,84,89,-31,.
O=C1OCCC1NC1=NCCC1 (centres undefined),97,96,-26,.
O=C1CCO1,100,100,-2,.
O=c1c2ccccc2nc(/C=C/c2ccccc2O)n1-c1ccc(Br)cc1,103,89,-48,107
CCCC(=O)Nc1cc(C(=O)N2CCC3(CC2)OCCO3)ccc1S(=O)(=O)c1ccc(C)cc1,97,84,-1,98
CN(CC1COc2ccccc2O1)c1nc(-c2cccnc2)nc2ccccc12 (centres undefined),92,88,-23,.
C=CC1(C)OC(=O)N(c2cc(Cl)cc(Cl)c2)C1=O (centres undefined),72,93,-8,103
Brc1ccc(C2N3CCCN23)cc1 (centres undefined),104,100,6,111
CCC1=C2CCC3C(CCC4(C)C3CCC4(C)O)C2(C)CCC1=O (centres undefined),100,90,-14,99
CC(=O)Nc1ccc(C#N)c(C(F)(F)F)c1,87,94,-4,103
CC(N)[C@H](O)c1ccc(O)c(O)c1 (some centres undefined),.,.,-46,110
CCOC(=O)c1c(-n2c(C)cc(/C=C3/C(=O)NC(=O)N(CC)C3=O)c2C)sc2c1CCCC2,108,96,-7,106
Cc1cccc(CN2C(=O)CN=C(c3ccccc3)c3cc(Cl)ccc32)c1,114,94,.,104
CN1CC[C@@]2(C)c3cc(O)ccc3N(C)C12 (some centres undefined),.,.,1,104
O=C(COc1ccc(F)cc1)N1CCN(CCc2ccncc2)CC1,.,.,-5,99
N=C(N)c1ccc(CS(=O)(=O)F)cc1,.,.,-1,98
C[N+]1(C)CCc2cc3c(cc2[C@H]1[C@@H]1OC(=O)c2c1ccc1c2OCO1)OCO3,.,.,1&-5&0&-31,99
CCOC(=O)c1ccc(-n2c(C)cc(C=C3C(=O)N(C)C(=O)N(C)C3=O)c2C)cc1,.,.,-27,109
CCN(CC)C(=O)c1ccc(NC(=O)CCn2nc(-c3ccc(C)cc3)c3ccccc3c2=O)cc1,99,91,-30,108
CCOC(=O)[C@@H]1[C@@H]2NC(=O)N[C@@]1(C)Oc1ccccc12,88,90,-6,.
CCOc1ccc(C(CN)CC(=O)O)cc1OCC (centres undefined),89,92,11,109
CCN(CC)C(=O)c1ccc(NC(=O)CSC(C)(C)C)cc1,103,90,-11,.
CCCn1c(=O)c2[nH]c(C3CCCC3)nc2n(CCCOC(=O)c2ccc(S(=O)(=O)F)cc2)c1=O,.,.,-30,102
CC(C)Nc1nc(N2CCCC2)nc(N2CC3CC(C2)c2cccc(=O)n2C3)n1 (centres undefined),95,80,-5,.
CCOC(=O)C1C(=O)NC23CCCCC2C1c1cc(OC)ccc1O3 (centres undefined),87,101,-14,107
CCOC(=O)C1=C(C)NC(C)=C2C(=O)Oc3ccccc3C12 (centres undefined),82,98,-31,99
CN1CCC(N(C)CC2=CCC3CC2C3(C)C)CC1 (centres undefined),107,101,-10,104
CCc1ccccc1N1C(=O)CC(=O)NC1=S,94,99,-5,101
c1cncc(CNC2=NCCC2)c1,92,97,-22,.
CCCN1CC[C@@H]2c3cc(O)ccc3CC[C@@H]21,.,.,-14,101
O=C(O)c1ccc(C2NCc3ccccc3-n3cccc32)cc1 (centres undefined),116,82,-19,100
CCOC(=O)C1(c2ccccc2)CCN(C(=O)c2ccccc2O)CC1,108,89,-12,.
CCc1ccc(NC(=O)N(Cc2ccco2)C2CCN(Cc3ccccc3)CC2)cc1,95,79,.,98
CCC1(C2=NCCN2)Cc2ccccc2O1 (centres undefined),88,81,-33&-6&-13,102&100
N#CCN1CCN(c2cccc(Cl)c2)CC1,104,77,-8,103
CCOc1cc(C=C2C(=O)N(C)C(=S)N(C)C2=O)ccc1OC(C)C(=O)O (centres undefined),105,72,-8,100
NC1=C(C(=O)OCc2ccccc2)C2(C(=O)Nc3ccc(Br)cc32)C2=C(O1)C(=O)CCC2 (centres undefined),103,108,-4,.
CN(C)P(=NC(=S)c1cccn1C)(N(C)C)N(C)C,97,86,-18,.
O=C(NCC1(N2CCCCC2)CCCCC1)c1ccc2c(=O)n3c(nc2c1)CCCCC3,72,87,-26,.
CN1CCC2(CC1)CC(NC=O)c1ccccc1O2 (centres undefined),98,84,0,100
NC(Cn1oc(=O)[nH]c1=O)C(=O)O (centres undefined),.,.,22,106
O=C(COc1ccc(F)cc1)N1CCN(CCc2ccccn2)CC1,.,.,-4,102
C=C(C)Cc1c(C)nc(SCC(=O)C(C)(C)C)nc1OC(=O)N(C)C,103,83,-13,103
O=C(O)C1C2CCC(O2)C1C(=O)N1CCN(C/C=C/c2ccccc2)CC1 (centres undefined),132,102,.,97
C[C@@]12C[C@H](O)CCN1CCc1ccccc12,98,94,-30,100
CCCCCc1nc2ccccc2c(=O)n1-c1ccc(C)cc1,101,88,-23,103
CCC1(c2ccc(N)cc2)CCC(=O)NC1=O (centres undefined),90&86,87&81,-3&-15&-5&-21&-57&-33,102&103
O=C(NC1CCCCC1)c1cc2cccnc2n(Cc2ccccc2)c1=O,.,.,8,105
C[C@H]1O[C@H](OC2[C@@H](O)[C@@H](O)C(O)[C@H](O)[C@H]2O)[C@@H](N)C[C@@H]1N=C(N)C(=O)O (some centres undefined),105,90,-8,104
CCOC(=O)c1c(C)n(Cc2ccccc2)c2ccc(OCC(O)CN3CCN(CCO)CC3)cc12 (centres undefined),113,96,-3,109
CCOC(=O)C1C2c3ccccc3C(c3ccccc32)C1C(=O)OCC (centres undefined),98,95,-11,101
O=C1NC(=O)C2(C(=O)N1)C(c1ccccc1Cl)CC(O)CC2c1ccccc1Cl (centres undefined),89,75,-13,.
CC12CNCC(C)(CNC1)C2=O,92,98,6,98
COc1ccc(CCN(C)Cc2ccccc2C)cc1OC,98,105,-2,111
CC(C)(C)P(=O)(c1ccncc1)N1CCCCCC1 (centres undefined),99,89,-22,.
Cc1[nH]c2ccccc2c1CC1C(=O)N(C)C(=O)N(C)C1=O,98,90,1,.
CCOC(=O)C1=C(N)Oc2c(c(=O)[nH]c3ccccc23)C12C(=O)Nc1ccccc12 (centres undefined),100,91,-18,103
O=C1NC(=O)C(=Cc2cn(Cc3ccccc3)c3ccccc23)C(=O)N1,133,80,.,-5.9*

# Sorted by length of the SMILES (descending): 21 of the compounds above
SMILES,Sa growth 42C,Sa growth 42C second temp,HCMV UL50-53 inh,GIV-Gai inh
C[C@H]1O[C@H](OC2[C@@H](O)[C@@H](O)C(O)[C@H](O)[C@H]2O)[C@@H](N)C[C@@H]1N=C(N)C(=O)O (some centres undefined),105,90,-8,104
NC1=C(C(=O)OCc2ccccc2)C2(C(=O)Nc3ccc(Br)cc32)C2=C(O1)C(=O)CCC2 (centres undefined),103,108,-4,.
CCOC(=O)c1c(C)n(Cc2ccccc2)c2ccc(OCC(O)CN3CCN(CCO)CC3)cc12 (centres undefined),113,96,-3,109
O=C(NCC1(N2CCCCC2)CCCCC1)c1ccc2c(=O)n3c(nc2c1)CCCCC3,72,87,-26,.
CCOc1cc(C=C2C(=O)N(C)C(=S)N(C)C2=O)ccc1OC(C)C(=O)O (centres undefined),105,72,-8,100
CCc1ccc(NC(=O)N(Cc2ccco2)C2CCN(Cc3ccccc3)CC2)cc1,95,79,.,98
O=C1NC(=O)C(=Cc2cn(Cc3ccccc3)c3ccccc23)C(=O)N1,133,80,.,-5.9*
CCOC(=O)C1C2c3ccccc3C(c3ccccc32)C1C(=O)OCC (centres undefined),98,95,-11,101
O=C(NC1CCCCC1)c1cc2cccnc2n(Cc2ccccc2)c1=O,.,.,8,105
O=C(COc1ccc(F)cc1)N1CCN(CCc2ccccn2)CC1,.,.,-4,102
O=C(O)c1ccc(C2NCc3ccccc3-n3cccc32)cc1 (centres undefined),116,82,-19,100
CCCN1CC[C@@H]2c3cc(O)ccc3CC[C@@H]21,.,.,-14,101
CC(C)(C)P(=O)(c1ccncc1)N1CCCCCC1 (centres undefined),99,89,-22,.
CN1CCC2(CC1)CC(NC=O)c1ccccc1O2 (centres undefined),98,84,0,100
CCC1(c2ccc(N)cc2)CCC(=O)NC1=O (centres undefined),90&86,87&81,-3&-15&-5&-21&-57&-33,102&103
CCc1ccccc1N1C(=O)CC(=O)NC1=S,94,99,-5,101
NC(Cn1oc(=O)[nH]c1=O)C(=O)O (centres undefined),.,.,22,106
N#CCN1CCN(c2cccc(Cl)c2)CC1,104,77,-8,103
CCC1(C2=NCCN2)Cc2ccccc2O1 (centres undefined),88,81,-33&-6&-13,102&100
CC12CNCC(C)(CNC1)C2=O,92,98,6,98
c1cncc(CNC2=NCCC2)c1,92,97,-22,.

# Copied from above for reference:
SMILES,Sa growth 42C,Sa growth 42C second temp,HCMV UL50-53 inh,GIV-Gai inh
O=C(NCC1(N2CCCCC2)CCCCC1)c1ccc2c(=O)n3c(nc2c1)CCCCC3,72,87,-26,.
CN1CCC2(CC1)CC(NC=O)c1ccccc1O2 (centres undefined),98,84,0,100
NC(Cn1oc(=O)[nH]c1=O)C(=O)O (centres undefined),.,.,22,106
O=C(COc1ccc(F)cc1)N1CCN(CCc2ccccn2)CC1,.,.,-4,102

# The listing continues:
SMILES,Sa growth 42C,Sa growth 42C second temp,HCMV UL50-53 inh,GIV-Gai inh
CN1C(=O)C(=Cc2ccccc2OS(=O)(=O)c2ccccc2)C(=O)N(C)C1=O,.,.,-6,106
COc1cc2c3c(c1OC)-c1ccccc1CC3N(C)CC2 (centres undefined),106,76,-29,107
COc1ccc(CCN2C(=O)NC(=O)C(CCc3ccncc3)(CCc3ccncc3)C2=O)cc1OC,108,105,-2,108
CN1CCc2c(c(NCCO)nc3n[nH]c(N)c23)C1,89,90,-2,.
COc1ccc(-c2nc(CN3C(=O)CN=C(c4ccccc4)c4ccccc43)c(C)o2)cc1OC,76,82,5,106
Cc1ccccc1-n1c(/C=C/c2ccc(N(C)C)cc2)nc2ccccc2c1=O,92,87,-72,180
FC(F)(F)c1cccc(N2CCNCC2)c1,99,108,-34,.
C[C@]12Cc3cn[nH]c3C[C@@H]1CC[C@@H]1[C@@H]2CC[C@@]2(C)[C@H]1CC[C@]2(C)O,101&75,102&92,-31,109
CCN(CC)c1ncnc2sc3c(c12)CCC(C#N)(c1ccccc1)C3 (centres undefined),81,86,-8,102
CC(C)(Br)C(=O)Nc1nccs1,113,92,-10,.
CCn1c(CN2CCN(C)CC2)nc2ccccc21,103,85,-5,107&102
Cc1ccc(-n2c(/C=C/c3cc(Br)cs3)nc3ccccc3c2=O)cc1C,118,87,.,104
CN(C)C(=O)Oc1ccnc(SCc2c(F)cccc2Cl)n1,67,58,-25,104
Cc1ccc(S(=O)(=O)N2CCCCC2)cc1C(=O)Oc1cccc2cccnc12,103,95,.,100
CNC(C)c1ccc2c(c1)OCCO2 (centres undefined),89,86,-6,.
O=C(COc1ccccc1Cl)N1CCN(CCc2ccncc2)CC1,105,94,7,102
C=CCOC(=O)C1=C(C)OC(N)=C(C(=O)OC)C12C(=O)Nc1ccccc12 (centres undefined),99,105,-12,99
Cn1c(=O)n(C)c(=O)n(C)c1=O,87,86,-49,100
CN(C)C(=O)Oc1nnc(SCC(=O)c2ccc3c(c2)OCCO3)n1C1CC1,92,88,-21,107
N=C1C(NO)=NC(c2ccccc2)N1O (centres undefined),97,112,10,101
CCC(=O)N1N=C2C3CCN(CC3)[C@@H]2[C@@H]1c1cccc(OC)c1,.,.,-10,104
Cc1ccc(C(=O)Nc2ccccc2)cc1S(=O)(=O)N1CCCC1,91,87,.,105
N#Cc1cc2c(nc1SCC(=O)Nc1ccc(F)c(Cl)c1)C1CCN2CC1,96,44,-11,109
CCOc1ccc([C@H]2[C@@H]3C(=NN2C(C)=O)C2CCN3CC2)cc1,.,.,-1,100

# Bioassay records: PubChem, ICCB-Longwood Screening Facility, Harvard Medical School
